# VDR inhibitor = Inhibitors of the vitamin D receptor (VDR): qHTS; VDR-SRC2-3 peptide fluorescence polarization, 2 h; actives 0.93% (n = 400,000); Potency, µM, for the others: max response, negative = inhibition, actives largely listed as inhibitors; Vitamin D3 receptor (Homo sapiens), P11473; active = well fitted inhibition curve with a large enough effect; inconclusive = small, poorly fitted or top-dose-only effect, or another doubt; inactive = no such curve, though single readings can be large or run the other way; also: series mostly up to about 120 µM
# Target sequence (P11473 whole entry, looked up): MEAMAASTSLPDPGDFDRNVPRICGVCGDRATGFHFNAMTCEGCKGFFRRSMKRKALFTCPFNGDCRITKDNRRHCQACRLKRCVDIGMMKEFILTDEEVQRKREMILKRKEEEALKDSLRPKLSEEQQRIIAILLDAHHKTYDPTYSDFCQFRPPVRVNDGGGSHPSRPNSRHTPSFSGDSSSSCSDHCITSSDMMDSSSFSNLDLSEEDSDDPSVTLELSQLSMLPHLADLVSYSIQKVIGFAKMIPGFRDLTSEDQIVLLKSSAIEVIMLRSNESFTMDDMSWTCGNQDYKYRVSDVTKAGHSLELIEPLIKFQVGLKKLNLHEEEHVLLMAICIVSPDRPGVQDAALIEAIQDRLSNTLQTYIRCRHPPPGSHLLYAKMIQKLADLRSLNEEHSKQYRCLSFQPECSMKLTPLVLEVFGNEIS
#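 Compounds are added to VDR with labelled SRC2-3 coactivator peptide and held 2 h at room temperature. Inhibition of the VDR–peptide interaction is then read as a change in fluorescence polarization.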
# The depositor's hits bear a star; u = inconclusive; & = joins results of further samples; [ ] = another dose, or the depositor's remark. % is scaled to controls: 0 for no effect and ±100 for the full control effect; potency is read from the fitted curve at half-maximal effect. These rows are one share of the data; count on the stated rates, not on these rows.
VDR inhibitor,SMILES
-9%,FC(F)(F)c1nnc(N2CCN(c3ccc(Cl)cc3)CC2)s1
-2%,CCN(CC)C(=O)C1CCCN(C/C(C)=C/c2ccccc2)C1 (stereo not drawn)
-5%,Cc1nnc(SCC(=O)Nc2cc(C(F)(F)F)ccc2N2CCOCC2)o1
0%,COc1ccccc1C(CNC(=O)c1ccc(S(=O)(=O)NCc2ccco2)cc1)N(C)C (stereo not drawn)
7%,CCN(C(=O)c1c(C)oc2ncn(CC(C)C)c(=O)c12)c1cccc(Cl)c1
5%,CCN(CC)CCn1c(OC)cc(=O)[nH]c1=O
-10%,COc1ccc(/C=C/C(=O)OCC(=O)Nc2ccc(N3CCOCC3)cc2)cc1
0%,COc1ccc(NC(=O)C(c2ccccc2)c2ccccc2)cn1
-17%,COC(=O)c1ccc(Nc2nc(-c3ccc(C)cc3)nc3ccccc23)cc1
5%,Fc1ccc(Br)cc1C1C=C(c2ccc(Br)cc2)Nc2ncnn21 (stereo not drawn)
-6%,COc1ccccc1OCC(=O)N1CC2(C)CC1CC(C)(C)C2 (stereo not drawn)
-6%,O=C(CN(Cc1ccc(F)cc1)C(=O)CCC(=O)Nc1ccccn1)NCc1ccc(F)cc1
-7%,COc1cc(/C=C/C(C)=NNc2ccccc2)ccc1O
-17%,CN(C)CCCNS(=O)(=O)c1ccc(NC2CCCCCC2)c([N+](=O)[O-])c1
0%,CCOc1cccc2cc(-c3nnc(Nc4ccc(F)c(Cl)c4)s3)c(=O)oc12
6%,CCC1CCCCN1Cc1nc2c(c(=O)n(C)c(=O)n2C)n1Cc1c(F)cccc1Cl (stereo not drawn)
u,CC(C)(C)CC(C)(C)SSc1n[nH]c(=S)s1
4%,Cc1ccc2nsnc2c1S(=O)(=O)NC1CC1
6%,CCOc1ccc(Cl)cc1CNCCCSc1nnnn1C
-3%,CCOc1ccc(C(C)C)cc1S(=O)(=O)n1ccnc1C
13%,COc1ccccc1C(=O)NCC(=O)NNC(=O)c1cccs1
-15%,CC(C)(C)c1ccc(C(=O)Nc2ccc(C(=O)N3CCOCC3)cc2)cc1
-6%,COc1cccc(NC(=O)/C=C/c2ccccc2[N+](=O)[O-])c1
-10%,Cc1cccc2c1CCCC2=O
5%,NC(=O)C1(N2CCCCC2)CCN(C(=S)Nc2ccc(Cl)cc2)CC1
-8%,COC(=O)C1=C(C)N(Cc2ccccc2)C(=O)N[C@H]1c1cccc(F)c1
8%,Cc1cccc(NC(=O)CN(C)C(=O)/C=C/c2ccccc2)c1C
1%,Cn1nnnc1SCCCNCc1ccccc1OCc1ccc(Cl)cc1
8%,Cc1ccc(-c2ccc(=O)n(CC(=O)NCCc3ccccc3)n2)cc1
-8%,O=C(COC(=O)c1ccc(NS(=O)(=O)c2cccs2)cc1)Nc1nc2c(F)c(F)c(F)cc2s1
-4%,CC(C)C(=O)Nc1ccc(NC(=O)c2cccs2)cn1
0%&-9%,N[C@H]1CONC1=O

# Rewritten bar-delimited: part of the list above
canonical_smiles | VDR inhibitor
COC(=O)C1=C(C)N(Cc2ccccc2)C(=O)N[C@H]1c1cccc(F)c1 | -8%
Cc1cccc(NC(=O)CN(C)C(=O)/C=C/c2ccccc2)c1C | 8%
Cn1nnnc1SCCCNCc1ccccc1OCc1ccc(Cl)cc1 | 1%

# An excerpt from above in order of their number in VDR inhibitor, high to low:
VDR inhibitor,SMILES
8%,Cc1cccc(NC(=O)CN(C)C(=O)/C=C/c2ccccc2)c1C
-4%,CC(C)C(=O)Nc1ccc(NC(=O)c2cccs2)cn1
-8%,COC(=O)C1=C(C)N(Cc2ccccc2)C(=O)N[C@H]1c1cccc(F)c1

# (next part)
VDR inhibitor,SMILES
6%,O=C1N=C(N2CCN(c3ccccc3)CC2)SC1Cc1ccccc1 (stereo not drawn)
-2%,COc1ccc(C)cc1S(=O)(=O)N1CCN(c2ccccc2)CC1
-2%,O=C(NC1CCN(Cc2ccccc2Cl)CC1)c1ccccc1
11%,N#CCc1ccc(C(=O)c2ccccc2)s1
-15%,Cc1ccc(SCC(=O)OCC(=O)N(CC(C)C)c2c(N)n(Cc3ccccc3)c(=O)[nH]c2=O)c(C)c1
9%,CCOc1ccc(-c2nonc2NC(=O)COc2ccc(C)c(C)c2)cc1OCC
7%,Cc1c(Oc2ccc(C(F)(F)F)cc2[N+](=O)[O-])ccc2c3c(c(=O)oc12)CCC3
0%,O=C(NCc1ccc(Cl)s1)c1cc(COc2c(F)cccc2F)on1
-14%,COC(=O)CC1C(=O)NCCN1C(=O)CSc1nc2ccc([N+](=O)[O-])cc2s1 (stereo not drawn)
-10%,CC(C)C(NC(=O)c1ccccc1F)C(=O)NCC(c1ccco1)N1CCCCC1 (stereo not drawn)
8%,CCN(CC)S(=O)(=O)c1ccc2[nH]cc(C(=O)NCCC3=CCCCC3)c(=O)c2c1
-15%,CSc1nc(NC(C)=O)nc(C)c1Cl
10%,Cc1ccc(-c2csc3nc(C)n(-n4cccc4)c(=O)c23)o1
-10%,O=C(/C=C/Nc1ccc([N+](=O)[O-])cc1Br)c1cccc2ccccc12
-13%,O=C(O)c1ccc(S(=O)(=O)NCc2ccc3c(c2)OCO3)cc1
-1%,Cc1ccc2[nH]c(=O)c(-c3noc(C(C)C)n3)cc2c1

# Among those listed so far, 3 contain a CF3 group.
VDR inhibitor,SMILES
-9%,FC(F)(F)c1nnc(N2CCN(c3ccc(Cl)cc3)CC2)s1
-5%,Cc1nnc(SCC(=O)Nc2cc(C(F)(F)F)ccc2N2CCOCC2)o1
7%,Cc1c(Oc2ccc(C(F)(F)F)cc2[N+](=O)[O-])ccc2c3c(c(=O)oc12)CCC3

# Following part.
VDR inhibitor,SMILES
5%,COc1cc2c(C#N)c(N3CCOCC3)nc(N)c2c(N)n1
-8%,O=C(NCCc1ccccc1)c1ccc(NC(=O)c2cccnc2)cc1
2%,CC(C)(C)NC(=O)NC(=O)CN1CCC(Cc2ccccc2)CC1
-2%,CN(CC(=O)Nc1ccccc1Cl)C(=O)COC(=O)CSc1ccc(F)cc1
5%,O=C(Nc1ccc(CN2CCS(=O)(=O)CC2)cc1)c1ccc(F)cc1
9%,CCc1nnc(NC(=O)CSCc2cc(=O)n3cc(C)sc3n2)s1
-5%,Cc1ccc(C(C)C)c(OCC(=O)OCC(=O)NC2CC2)c1
-6%,O=C(c1cc(-c2ccccc2)nc2ccccc12)N1CCCc2ccccc21
6%,COC(=O)c1c(C)oc2c1cc(NS(=O)(=O)c1cccs1)c1ccccc12
3%,CCn1c(CC(=O)Nc2ccccc2F)nnc1SCC(=O)N1CCOCC1
-11%,CC(C)N(C(=O)CC1ON(C)C(=O)N1c1ccc(Cl)cc1)C(C)C (stereo not drawn)
-10%,Cc1nnc(C)n1/N=C/C=C/c1ccccc1
-4%,CCCS(=O)(=O)C(=C1NCCO1)S(=O)(=O)CCC
13%,COc1cc(/C=N/N2CCN(Cc3ccccc3)CC2)cc(OC)c1OC(C)=O
-16%,N#Cc1ccccc1S(=O)(=O)N1CCN(C(=O)C2COc3ccccc3O2)CC1 (stereo not drawn)
-22%,CN(C)CCn1c(=O)n(Cc2ccccc2)c(=O)c2c3c(sc21)CCCCC3
-4%,O=C(O)CCC(=O)NCC(=O)c1ccc(F)cc1
-13%,O=C1COc2ccc3ccccc3c21
0%,CCOC(=O)[C@@H]1[C@H]2COc3cc(OC)ccc3[C@@H]2N2C(=O)N(c3ccc(C)cc3)C(=O)[C@]12C
-4%,O=C(CN1C(=O)NC2(CCCc3ccccc32)C1=O)c1ccc(Br)cc1 (stereo not drawn)
-3%,N=c1c(C(=O)NC2CCCC2)cc2c(=O)n3ccccc3nc2n1C1CCCC1
4%,O=C(Nc1ccccc1Cl)c1ccc2c(c1)N(Cc1ccc(F)cc1)C(=O)CS2=O (stereo not drawn)
-1%,CCOC(=O)c1c(C)[nH]c(C(=O)OCC(=O)NCc2ccccc2)c1C
-21%,COc1ccc(-n2nnc(C(=O)Nc3ccccc3F)c2N)cc1

# 3 records picked at random from those above:
VDR inhibitor,SMILES
4%,O=C(Nc1ccccc1Cl)c1ccc2c(c1)N(Cc1ccc(F)cc1)C(=O)CS2=O (stereo not drawn)
-21%,COc1ccc(-n2nnc(C(=O)Nc3ccccc3F)c2N)cc1
-13%,O=C1COc2ccc3ccccc3c21

# Later entries
VDR inhibitor,SMILES
u,CCNC(=O)NC(=O)COC(=O)c1ccccc1SCC(=O)NC(=O)NCC
-6%,CCCOC(=O)Nc1ccccc1C(N)=O
17%,COc1ccccc1C(=O)N1CCN(C(=O)COc2cccc(C)c2)CC1
-13%,C/C(=N\Nc1nccnc1Cl)c1ccc([N+](=O)[O-])cc1
-17%,CC(=O)NCCn1c(SCc2cc(F)ccc2F)nc2ccccc2c1=O
-15%,COc1ccc(C(=O)N2CCC3(CC2)CN(c2ccccc2)C3)cc1
6%,COc1ccc(/C=N/NC(=S)Nc2cccc(C(=O)O)c2)cc1OC
-24%,Cn1c(NC2CCCCC2)cc(=O)n(C)c1=O
-20%,CC1(C)OC(c2ccccc2)=C/C(=C/C=C2C(=O)c3ccccc3C2=O)O1
-4%,COc1ccc2nc(NC(=O)c3ccc(NS(=O)(=O)c4cccs4)cc3)sc2c1
-2%,COc1ccc(C(CNC(=O)c2cccc(NS(=O)(=O)c3ccc(C)c(F)c3)c2)N2CCCC2)cc1 (stereo not drawn)
-14%,O=C(Nc1cccc(C(=O)N2CCCCC2)c1)C1CCCCC1
-16%,O=[N+]([O-])c1ccc(NN=Cc2ccc(O)cc2O)nc1
-8%,NC(=O)c1ccsc1NC(=O)COC(=O)Cc1c[nH]c2ccccc12
-14%,CC1CCc2nn(CC(=O)NCc3ccc(F)cc3)cc2C1 (stereo not drawn)
-11%,CCOc1ccc(CC(=O)Nc2c(C(=O)Nc3ccc(OC)cc3OC)oc3ccccc23)cc1
-14%,N#Cc1c(-n2ncnc2-c2cccc(Br)c2)sc2c1CCCCC2
-10%,CC(C)(C)C(=O)Nc1ccc(-c2nnc3n2CCCCC3)cc1
5%,CN(C(=O)c1ccc2c(c1)N(Cc1ccccc1F)C(=O)c1ccccc1S2)C1CCCCC1
56%[activator],Cc1ccc(-n2c(=O)c3ccc(C(=O)NCc4ccccc4Cl)cc3n(CC(N)=O)c2=O)cc1
-13%,CN(CC(=O)Nc1ccc(N2CCOCC2)cc1)Cc1cc(=O)n2ccsc2n1
-5%,Cc1cccc(N2CCN(C(=O)c3ccc(CNc4c(N5CCC(C)CC5)c(=O)c4=O)cc3)CC2)c1C
5%,O=C(CN(Cc1ccc(Cl)cc1)C(=O)CN1C(=O)COc2ccccc21)NC1CCCC1
0%,COc1ccc(OC)c(Cc2nnc(CCC(=O)NCc3ccsc3)o2)c1
-21%,COc1ccc(-c2nn(-c3ccc(C)cc3)c3c2cnc2ccc(C)cc23)cc1OC
15%,O=C(CSc1nnc(CNC(=O)c2ccco2)o1)Nc1cccc(C(F)(F)F)c1
-17%,COc1cccc(C(=O)NCc2ccco2)c1
16%,CCOc1ccccc1N/C=C/C(=O)C(C)(C)C
-11%,Clc1cccc(N2CCN(Cc3nnc(-c4ccccc4)o3)CC2)c1
4%,Nc1c(Cl)cc(N=Nc2ccccc2)cc1Cl
5%,Cc1nc(N2CCCC2)ncc1C(=O)NCc1ccccc1Cl
1%,CCOC(=O)C1(C)NC(c2ccco2)C2C(=O)N(c3ccccc3)C(=O)C21 (stereo not drawn)
0%,CN(C)CCCNc1nc(N)c([N+](=O)[O-])c(NC2CCCCC2)n1
-4%,COC(=O)c1scc(C)c1NC(=O)C(Cl)c1ccccc1 (stereo not drawn)
0%,Cc1ccc(-c2nnc(CSc3nncn3N)o2)cc1
-28%,Cc1nc(Cl)sc1C(=O)Nc1cccc(Cl)c1
6%,CC1CN(C(=O)c2ccccc2)OC(c2ccc3c(c2)OCO3)O1 (stereo not drawn)
9%,CC1CC(C)CN(CCCNC(=O)C2CCCN(S(=O)(=O)N3CC(C)CC(C)C3)C2)C1 (stereo not drawn)
10%,COc1ccc(C2(C(=O)O)CCCC2)cc1
3%,COc1ccc2c(CNCc3cccs3)c(C(=O)O)n(Cc3ccccc3)c2c1
-12%,Cc1ccnc(NS(=O)(=O)c2ccc(NC(=O)CN3C(=O)CCC3=O)cc2)n1
-21%,CC(C)Cn1cnc2c1c(=O)n(CC(=O)NC(=O)NC(C)(C)C)c(=O)n2Cc1ccccc1
-27%,CCCCNC(=S)NNC(=O)c1ccc2c(c1)OCO2
-7%,O=C(O)c1cc(NC(=O)c2cccc(N3C(=O)c4ccccc4C3=O)c2)cc(C(=O)O)c1
-5%,CN(C)c1ccc(/C=N/NC(=O)CNC(=O)/C=C/c2ccco2)cc1
-26%,Cc1cc(=O)[nH]c(N2CCc3ccccc3C2)n1
24%,CCN(CC)CCNc1nc2c(c(=O)[nH]c(=O)n2C)n1CC(O)COc1ccc(Cl)cc1Cl (stereo not drawn)
0%,O=[N+]([O-])c1cc(S(=O)(=O)N2CCCC2)ccc1SCCO
-10%,C[S+](C)CC[C@H](N)C(=O)O
-13%,COC(=O)c1ccc(COc2ccccc2/C=C(\C#N)C(=O)Nc2ccc(C)cc2)cc1
7%,O=c1ncccn1[C@@H]1O[C@H](CO)[C@@H](O)[C@H]1O
-6%,CCOC(=O)c1c(NC(=O)Nc2ccccc2)sc(C)c1C
4%,O=C1C=C(Nc2ccccc2)C(=O)c2ccccc21
12%,Cc1c(CN2CCC(C)CC2)c(=O)n(-c2ccccc2)n1C
3%,COc1ccc(S(=O)(=O)N(C)C)cc1NCC(=O)Nc1cccc(C#N)c1
u,CSc1nc2c(cc1C#N)CCCCC2

# Other records follow:
VDR inhibitor,SMILES
-9%,N/C(=N\OC(=O)c1ccc2c(c1)OCO2)c1cccc(Br)c1
-7%,COc1cc(C(C)=O)ccc1COc1ccc(C(=O)OCC(=O)NC2CCS(=O)(=O)C2)cc1OC (stereo not drawn)
1%,Cc1ccc(SCc2nc3ncccn3c2Br)cc1
u,COc1ccc(C)cc1Nc1nc(N)c2ccccc2n1

# Screening data deposited in PubChem by National Center for Advancing Translational Sciences (NCATS).
